# Source: PubChem BioAssay (Broad Institute)
# p53 mut binder: binds human mutant p53 on microarray; small molecule microarray binding, anti-GST fluorescence; calls only; 17,000 compounds, 0.4% hits; AID 624136;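 active means compounds whose four printed spots each glow above background more than chance allows, each with a p-value under 7%; compounds were printed on slides so no solution concentration is given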;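 further: about 2 pmol printed per array spot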
# ID4 SMM: ID4 (human) binding. small molecule microarray, Flag-ID4 binding, fluorescence F/B. calls only. 31,000 compounds, 1.2% hits. AID 624137;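 active means spot signal over background at p below 0.07 in all four prints; compounds were printed on slides so no solution concentration is given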;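 further: a binder raises fluorescence above local background on the spot; about 2 pmol printed per array spot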
# Target sequence (P47928 whole entry, looked up): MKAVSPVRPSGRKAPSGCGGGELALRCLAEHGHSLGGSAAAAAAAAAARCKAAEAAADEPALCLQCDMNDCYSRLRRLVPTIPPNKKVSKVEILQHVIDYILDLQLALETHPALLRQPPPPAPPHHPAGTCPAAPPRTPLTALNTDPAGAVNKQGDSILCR
# Myc binder: binds human c-Myc on microarray; calls only; AID 624141; P01106; 17,000 compounds, 1.5% hits; small molecule microarray, His-c-Myc binding, anti-His fluorescence;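 active means spot fluorescence over background with P-value below 7% in all four replicate spots, showing protein binding; compounds were printed on slides so no solution concentration is given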;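 further: score is binary with 100 for all four spots passing and 0 otherwise; about 2 pmol printed per array spot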
# Target sequence (P01106 whole entry, looked up): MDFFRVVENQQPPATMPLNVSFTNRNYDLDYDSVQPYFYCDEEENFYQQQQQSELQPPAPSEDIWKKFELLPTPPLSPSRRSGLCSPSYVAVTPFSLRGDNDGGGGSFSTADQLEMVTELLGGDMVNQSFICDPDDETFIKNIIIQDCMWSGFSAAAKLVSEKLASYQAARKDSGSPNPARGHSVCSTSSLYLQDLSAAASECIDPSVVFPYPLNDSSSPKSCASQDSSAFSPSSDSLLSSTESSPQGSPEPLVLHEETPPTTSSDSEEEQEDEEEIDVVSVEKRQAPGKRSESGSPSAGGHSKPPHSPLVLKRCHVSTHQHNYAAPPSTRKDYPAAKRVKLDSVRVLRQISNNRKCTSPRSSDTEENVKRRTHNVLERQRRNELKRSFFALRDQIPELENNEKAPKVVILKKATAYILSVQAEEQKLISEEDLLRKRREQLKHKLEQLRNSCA
# STAT3 binder: binders of human STAT3. AID 624138. P40763. 17,000 compounds, 0.2% hits. Small molecule microarray, His-STAT3 binding, anti-His fluorescence. calls only;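 active means compounds whose four printed spots each show fluorescence over background unusually high for their array block, chance value under 7%; compounds were printed on slides so no solution concentration is given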;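 further: about 2 pmol printed per array spot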
# Calls only; i = inactive; . = no result given; + = active, no number. These rows are one share of the data, so the mix of outcomes need not match the whole.
# Under each structure: p53 mut binder | ID4 SMM | Myc binder | STAT3 binder
1	COc1ccc(S(=O)(=O)Nc2ccc3c(c2)C(=O)N([C@@H](C)CO)C[C@@H](C)[C@H](CN(C)S(=O)(=O)c2ccc(F)cc2)OCCCC[C@@H](C)O3)cc1
→ i | . | i | i
2	Cc1noc(C)c1S(=O)(=O)N(C)C[C@@H]1OCCCC[C@H](C)Oc2ccc(NC(=O)CCCN(C)C)cc2C(=O)N([C@H](C)CO)C[C@H]1C
→ i | i | i | i
3	C[C@H](CO)N1C[C@H](C)[C@H](CN(C)C)OCCCC[C@H](C)Oc2ccc(NC(=O)c3ccccc3)cc2C1=O
→ i | i | i | i
4	O=C(COc1ccc(CO)cc1)Nc1ccccc1
→ i | i | i | i
5	Cn1c(SCC(=O)Nc2ccccc2F)nnc1-c1ccccc1
→ i | i | i | i
6	Cc1noc(C)c1NC(=O)N(C)C[C@H]1Oc2ccc(NC(=O)Nc3ccc(F)cc3)cc2C(=O)N([C@@H](C)CO)C[C@@H]1C
→ i | i | i | i
7	CCc1c(C)sc(NC(=O)CSc2nc(-c3ccccc3)cc(C(F)(F)F)n2)c1C#N
→ i | i | i | i
8	COc1ccc(S(=O)(=O)Nc2cccc3c2O[C@H](CN(C)Cc2ccc(C(F)(F)F)cc2)[C@@H](C)CN([C@@H](C)CO)C3=O)cc1
→ i | i | i | i
9	C[C@@H]1CN([C@@H](C)CO)C(=O)Cc2cc(NC(=O)c3ccncc3)ccc2O[C@@H]1CN(C)C(=O)Nc1cccc2ccccc12
→ i | i | i | i
10	CNC[C@H]1OCCCC[C@@H](C)Oc2ccc(N)cc2C(=O)N([C@H](C)CO)C[C@H]1C
→ i | i | i | i
11	CC(=O)c1c(C)nc(-c2ccc(Cl)cc2)nc1NC(=O)Cc1ccccc1
→ i | i | i | i
12	Cc1ccc(S(=O)(=O)N(C)CC(=O)Nc2ccc(C)cc2C)cc1
→ i | i | i | i
13	COc1ccc(NC(=O)c2ccc(N(C)S(=O)(=O)c3ccc(OC)c(OC)c3)cc2)cc1OC
→ i | i | i | i
14	CC(=O)N1CCN(c2ccc(OCC3COC(Cn4ccnc4)(c4ccc(Cl)cc4Cl)O3)cc2)CC1 (configuration not stated)
→ i | . | i | i
15	C[C@H](CO)N1C[C@H](C)[C@H](CN(C)S(=O)(=O)c2cccs2)Oc2c(NC(=O)c3nc4ccccc4s3)cccc2C1=O
→ i | i | i | i
16	COc1ccc(NC(=O)Nc2cccc3c2O[C@H](CN(C)Cc2ccc(C(=O)O)cc2)[C@@H](C)CN([C@H](C)CO)C3=O)cc1
→ i | i | i | i
17	CC(C)NC(=O)N(C)C[C@H]1Oc2c(NC(=O)C3CC3)cccc2C(=O)N([C@H](C)CO)C[C@@H]1C
→ i | i | i | i
18	Cc1cccc(NC(=O)CC2Nc3cccc4cccc(c34)NC2=O)c1 (configuration not stated)
→ i | i | i | i
19	Cc1ccc(C(=O)NC(=O)CSc2nnc(C)s2)cc1
→ i | i | i | i
20	C[C@@H]1CCCCO[C@@H](CN(C)S(=O)(=O)c2ccccc2)[C@H](C)CN([C@H](C)CO)C(=O)c2cc(NC(=O)CCC(F)(F)F)ccc2O1
→ i | i | i | i
21	C[C@@H]1CN([C@@H](C)CO)C(=O)c2cc(NC(=O)Nc3ccc(F)cc3)ccc2O[C@H]1CN(C)Cc1ccc2c(c1)OCO2
→ i | i | i | i
22	COc1ccc(NC(=O)O[C@@H](c2ccc(OC)c(O)c2)[C@H](CCO)OC)cc1
→ i | . | i | i
23	C[C@@H]1CCCCO[C@@H](CN(C)C(=O)Nc2ccccc2)[C@H](C)CN([C@@H](C)CO)C(=O)c2cc(NC(=O)Nc3ccccc3)ccc2O1
→ i | i | i | i
24	O=C(COc1ccc(Br)cc1)Nc1cc(C(F)(F)F)ccc1N1CCOCC1
→ i | i | i | i
25	COc1ccc(S(=O)(=O)N(C)C[C@@H]2Oc3ccc(NS(C)(=O)=O)cc3CC(=O)N([C@@H](C)CO)C[C@H]2C)cc1
→ i | i | i | i
26	COc1ccc(S(=O)(=O)Nc2ccc3c(c2)CC(=O)N([C@@H](C)CO)C[C@@H](C)[C@@H](CN(C)Cc2ccc(-c4ccccc4)cc2)O3)cc1
→ i | . | i | i
27	C[C@H]1CN([C@@H](C)CO)C(=O)c2cccc(NC(=O)Nc3ccc(F)cc3)c2O[C@H]1CN(C)C(=O)NC1CCCCC1
→ i | i | i | i
28	C[C@@H]1CN([C@H](C)CO)C(=O)c2cc(N(C)C)ccc2O[C@@H](C)CCCCO[C@@H]1CN(C)C(=O)Nc1cccc2ccccc12
→ i | i | i | i
29	COc1ccc(C2C(C#N)=C(N)Oc3n[nH]c(-c4ccccc4)c32)cc1CSc1ccccn1 (configuration not stated)
→ i | i | i | i
30	NC(=O)CN1C(=O)C(O)(C2CCc3ccccc3C2=O)c2ccccc21 (configuration not stated)
→ i | i | i | i

# Next part; it opens with the 7 that closed the last part.
# Under each structure: p53 mut binder | ID4 SMM | Myc binder | STAT3 binder
24	O=C(COc1ccc(Br)cc1)Nc1cc(C(F)(F)F)ccc1N1CCOCC1
→ i | i | i | i
25	COc1ccc(S(=O)(=O)N(C)C[C@@H]2Oc3ccc(NS(C)(=O)=O)cc3CC(=O)N([C@@H](C)CO)C[C@H]2C)cc1
→ i | i | i | i
26	COc1ccc(S(=O)(=O)Nc2ccc3c(c2)CC(=O)N([C@@H](C)CO)C[C@@H](C)[C@@H](CN(C)Cc2ccc(-c4ccccc4)cc2)O3)cc1
→ i | . | i | i
27	C[C@H]1CN([C@@H](C)CO)C(=O)c2cccc(NC(=O)Nc3ccc(F)cc3)c2O[C@H]1CN(C)C(=O)NC1CCCCC1
→ i | i | i | i
28	C[C@@H]1CN([C@H](C)CO)C(=O)c2cc(N(C)C)ccc2O[C@@H](C)CCCCO[C@@H]1CN(C)C(=O)Nc1cccc2ccccc12
→ i | i | i | i
29	COc1ccc(C2C(C#N)=C(N)Oc3n[nH]c(-c4ccccc4)c32)cc1CSc1ccccn1 (configuration not stated)
→ i | i | i | i
30	NC(=O)CN1C(=O)C(O)(C2CCc3ccccc3C2=O)c2ccccc21 (configuration not stated)
→ i | i | i | i
31	C[C@H](CO)N1C[C@H](C)[C@@H](CN(C)Cc2ccc(-c3ccccc3)cc2)Oc2ccc(NC(=O)Nc3ccc(C(F)(F)F)cc3)cc2CC1=O
→ i | . | i | i
32	Cc1noc(C)c1NC(=O)N(C)C[C@H]1Oc2c(NC(=O)c3nc4ccccc4s3)cccc2C(=O)N([C@H](C)CO)C[C@H]1C
→ i | i | i | i
33	O=C(O)C1=C[C@H](c2ccc(C(F)(F)F)cc2)C[C@H](OCCCCO)O1
→ i | i | i | +
34	CC(=O)c1ccc(OC(=O)C(CCS(C)(=O)=O)N2C(=O)c3ccccc3C2=O)cc1 (configuration not stated)
→ i | i | i | i
35	C[C@H](CO)N1C[C@H](C)[C@H](CN(C)C(=O)Nc2ccc3c(c2)OCO3)OCCCC[C@H](C)Oc2ccc(NS(C)(=O)=O)cc2C1=O
→ i | i | i | i
36	C[C@@H]1CN([C@@H](C)CO)C(=O)Cc2cc(NC(=O)Cc3cn(C)c4ccccc34)ccc2O[C@@H]1CN(C)Cc1ccc(C(=O)O)cc1
→ i | i | i | i
37	C[C@H]1CN([C@@H](C)CO)C(=O)c2cc(NS(=O)(=O)c3cccs3)ccc2O[C@@H]1CN(C)Cc1ccc(C(F)(F)F)cc1
→ i | . | i | i
38	Cc1ccc(S(=O)(=O)Nc2ccc3c(c2)C(=O)N([C@@H](C)CO)C[C@H](C)[C@@H](CN(C)C(=O)Nc2cccc4ccccc24)OCCCC[C@H](C)O3)cc1
→ i | . | i | i
39	COC(=O)c1c2oc(c1C(=O)OC)C(=O)N[C@H](Cc1ccccc1)Cn1cc(nn1)[C@@H](Cc1ccccc1)NC(=O)N[C@@H](CO)CC2
→ i | i | i | i
40	COc1ccc(NC(=O)CCn2nc(-c3ccccc3)c3ccccc3c2=O)cc1C(N)=O
→ i | i | i | i
41	COc1ccc(CN(C)C[C@H]2OCCCC[C@@H](C)Oc3ccc(NC(=O)NC(C)C)cc3C(=O)N([C@H](C)CO)C[C@H]2C)cc1
→ i | . | i | i
42	C[C@H]1CN([C@@H](C)CO)C(=O)c2cc(NS(=O)(=O)c3cccs3)ccc2O[C@@H]1CN(C)C(=O)NC1CCCCC1
→ i | i | i | i
43	C[C@@H]1CN([C@@H](C)CO)C(=O)CCCn2cc(nn2)CO[C@@H]1CN(C)Cc1ccc2c(c1)OCCN2C
→ i | i | i | i
44	COc1ccc(NC(=O)N(C)C[C@@H]2Oc3c(NC(=O)C4CCCCC4)cccc3C(=O)N([C@H](C)CO)C[C@H]2C)cc1
→ i | . | i | i
45	C[C@@H]1CN([C@@H](C)CO)C(=O)Cc2cc(NC(=O)CCN3CCOCC3)ccc2O[C@@H]1CN(C)C(=O)Nc1ccccc1
→ i | i | i | i
46	C=CCNC(=O)[C@H]1[C@@H]2C(=O)O[C@@H](c3ccccc3)[C@@H](c3ccccc3)N2[C@@H](c2ccccc2OCCO)[C@]12C(=O)N(C(=O)OCCOC)c1ccccc12
→ i | . | i | i
47	O=C(CC(C(=O)O)N1CCCCC1)Nc1cccc(Cl)c1 (configuration not stated)
→ i | i | i | i
48	CSc1nc(N)nc(SCC(=O)Nc2cccc(F)c2)c1C#N
→ i | i | i | i
49	C[C@H](CO)N1C[C@H](C)[C@@H](CN(C)C(=O)CCCN(C)C)OCCCC[C@H](C)Oc2ccc(NC(=O)CCCN(C)C)cc2C1=O
→ i | i | i | i
50	C[C@H](CO)N1C[C@H](C)[C@@H](CN(C)C(=O)Nc2cccc3ccccc23)Oc2c(NC(=O)c3ccncc3)cccc2C1=O
→ i | i | i | i
51	C[C@@H]1CCCCO[C@@H](CN(C)C(=O)Nc2ccc(F)cc2)[C@H](C)CN([C@@H](C)CO)C(=O)c2cc(NS(=O)(=O)c3ccccc3)ccc2O1
→ i | i | i | i
52	COc1ccc(-c2cnc3c(c2)C(=O)N([C@H](C)CO)C[C@H](C)[C@H](CN(C)S(=O)(=O)c2cccs2)O3)cc1
→ i | i | i | i
53	CC(C)(Sc1ccc(CCN(CCCCC2CCCCC2)C(=O)NC2CCCCC2)cc1)C(=O)O
→ i | i | i | i
54	C[C@@H]1CN([C@@H](C)CO)C(=O)c2cc(NC(=O)Nc3ccccc3)ccc2O[C@@H](C)CCCCO[C@@H]1CN(C)S(=O)(=O)c1ccccc1
→ i | i | i | i
55	Cc1noc(C)c1S(=O)(=O)Nc1ccc2c(c1)CC(=O)N([C@H](C)CO)C[C@H](C)[C@H](CN(C)S(=O)(=O)c1ccccc1)O2
→ i | i | i | i
56	Cc1noc(C)c1S(=O)(=O)Nc1ccc2c(c1)CC(=O)N([C@H](C)CO)C[C@H](C)[C@@H](CN(C)C)O2
→ i | i | i | i
57	CC/C=C\[C@H](O)[C@H](O)C1=C(C)C(=O)[C@]2(O1)C(=O)N[C@@](OC)(C(=O)c1ccccc1)C2O (some centres not stated)
→ i | . | i | i
58	C[C@@H]1CN([C@H](C)CO)C(=O)c2cc(NS(=O)(=O)c3ccc(F)cc3)ccc2O[C@@H](C)CCCCO[C@@H]1CN(C)C(=O)CCCN(C)C
→ i | . | i | i
59	C[C@@H]1CCCCO[C@H](CN(C)S(=O)(=O)c2ccccc2)[C@H](C)CN([C@@H](C)CO)C(=O)c2cc(NC(=O)Nc3ccccc3)ccc2O1
→ i | i | i | i
60	COC(=O)CC(O)(CCCC(C)(C)O)C(=O)O[C@@H]1C(OC)=C[C@]23CCCN2CCc2cc4c(cc2[C@@H]13)OCO4 (some centres not stated)
→ i | . | i | i
61	C[C@@H]1CN([C@@H](C)CO)C(=O)c2cc(NS(=O)(=O)c3cccs3)ccc2O[C@H]1CN(C)C(=O)NC1CCCCC1
→ i | i | i | i
62	Cc1ccc(SC(C)C(=O)Nc2cccc(N(C)S(C)(=O)=O)c2)cc1 (configuration not stated)
→ i | i | i | i
63	C[C@@H]1CCCCO[C@@H](CN(C)S(=O)(=O)c2ccccc2)[C@H](C)CN([C@H](C)CO)C(=O)c2cc(NS(C)(=O)=O)ccc2O1
→ i | i | i | i
64	Cc1cc(C)c(S(=O)(=O)N2CCN(c3ccc([N+](=O)[O-])c(NCc4ccco4)c3)CC2)c(C)c1
→ i | i | i | i
65	Cc1noc(C)c1NC(=O)Nc1ccc2c(c1)C(=O)N([C@H](C)CO)C[C@H](C)[C@H](CN(C)C(=O)Nc1c(C)noc1C)OCCCC[C@@H](C)O2
→ i | i | i | i
66	COc1ccc(S(=O)(=O)Nc2ccc3c(c2)C(=O)N([C@H](C)CO)C[C@@H](C)[C@@H](CN(C)S(=O)(=O)c2c(C)noc2C)O3)cc1
→ i | i | i | i
67	CN(c1cccc(NC(=O)c2ccc(N(C)S(=O)(=O)c3ccccc3)cc2)c1)S(C)(=O)=O
→ i | i | i | i
68	CNC[C@@H]1OCCCC[C@H](C)Oc2ccc(NC(=O)Nc3c(C)noc3C)cc2C(=O)N([C@H](C)CO)C[C@@H]1C
→ i | i | i | i
69	C[C@H]1CN([C@@H](C)CO)C(=O)c2cccc(NS(=O)(=O)c3cccs3)c2O[C@H]1CN(C)S(=O)(=O)c1ccc(Cl)cc1
→ i | i | i | i
70	COc1ccccc1N1CCN(CCN2C(=O)c3ccccc3C(C)(C)C2=O)CC1
→ i | i | i | i
71	Cc1cccc(C)c1NC(=O)CN(c1ccc(Br)cc1)S(C)(=O)=O
→ i | i | i | i
72	C[C@H](CO)N1C[C@H](C)[C@@H](CN(C)Cc2ccc(C(=O)O)cc2)Oc2ccc(NC(=O)NC3CCCCC3)cc2CC1=O
→ i | i | i | i
